Assay outcomes: PubChem BioAssay, National Center for Advancing Translational Sciences (NCATS)
MARV entry inh: Marburg virus entry inhibition. Marburg virus pseudotyped entry inhibition, cell reporter; control for the full effect not named in the record; about a third of the inactives were read at about 46 µM. Potency, µM (top dose mostly 37.8 µM), inactives show at the top dose activity change, negative = inhibition, most hits filed as inhibitors. 1.8% of 300,000 active; active = well fitted inhibition curve with a large enough effect; inconclusive = small, poorly fitted or top-dose-only effect, or effect the other way; inactive = flat fitted curve, though single readings scatter; tested in HEK293 cells; about a fifth of its hits are not listed in these tables; further: on the % scale 0 is the no-effect control and ±100 the full control effect; luciferase read-out
RE007 growth inh: less growth of the S. pombe RE007 Vpr strain. S. pombe RE007 Vpr strain, BacTiter-Glo ATP luminescence, 24 h; control for the full effect not named in the record. 0.21% of 360,000 active. Potency, µM (titrated, usually from 92.2 µM), for the others: at the highest dose activity change, negative = less growth; active = well fitted falling curve with a large enough effect; inconclusive = small, poorly fitted or top-dose-only effect; inactive = no such curve, though single readings can be large or run the other way;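 further: on the % scale 0 is the no-effect control and ±100 the full control effect; nearly all actives have a fitted effect of over 50% in size; the assay follows cell death caused by Vpr and the record does not say whether a fall means rescue or toxicity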
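Fission yeast strain RE007, carrying one chromosomally integrated HIV-1 vpr copy, was seeded at OD 0.01 in PMG+AL medium with 23 nL pinned compound. After 24 h at 30 °C and 99% humidity, viability was read by BacTiter-Glo luminescence.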
SARS PLpro yeast: blocks SARS-CoV papain-like protease in a yeast assay; S. cerevisiae expressing SARS-CoV PLpro, growth rescue; control for the full effect not named in the record; Potency, µM (series often up to 32.9 µM), for the others: at the highest dose activity, positive = growth rescue; 0.19% of 330,000 active; AID 485353; further: 0% is about no effect; nearly all actives have a fitted effect of over 55% in size; growth read by luminescence after 48 h
LASV entry inh: Lassa virus entry inhibition. AID 540256. Lassa virus pseudotype entry inhibition, cell reporter; control for the full effect not named in the record. Potency, µM (highest dose often 37.9 µM), inactives show at the highest dose activity change, negative = inhibition, most hits filed as inhibitors. 1.2% of 300,000 active; active means well fitted inhibition curve with a large enough effect; inconclusive means small, poorly fitted or top-dose-only effect, or effect the other way; inactive means flat fitted curve, though single readings scatter; tested in HEK293 cells; further: on the % scale 0 is the no-effect control and ±100 the full control effect; nearly all actives have a fitted effect of over 50% in size; luciferase read-out
Cruzain inh noDet: inhibitors of Trypanosoma cruzi cruzain without detergent; P25779; purified cruzain, Z-FR-AMC fluorescence, no detergent; Potency, µM, for inactives: max response, negative = inhibition, actives largely listed as inhibitors; 2.3% of 200,000 active; active means well fitted curve in the direction sought with a large enough effect; inconclusive means small, poorly fitted or top-dose-only effect, or another doubt; inactive means no such curve, though single readings can be large; an effect the other way counts as inactive or inconclusive;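 further: plate controls were enzyme without inhibitor for no effect and buffer without enzyme for full effect; nearly all actives have a fitted effect of over 40% in size; top concentration of the series not given in the record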
Target sequence (P25779 123-467 limits assumed): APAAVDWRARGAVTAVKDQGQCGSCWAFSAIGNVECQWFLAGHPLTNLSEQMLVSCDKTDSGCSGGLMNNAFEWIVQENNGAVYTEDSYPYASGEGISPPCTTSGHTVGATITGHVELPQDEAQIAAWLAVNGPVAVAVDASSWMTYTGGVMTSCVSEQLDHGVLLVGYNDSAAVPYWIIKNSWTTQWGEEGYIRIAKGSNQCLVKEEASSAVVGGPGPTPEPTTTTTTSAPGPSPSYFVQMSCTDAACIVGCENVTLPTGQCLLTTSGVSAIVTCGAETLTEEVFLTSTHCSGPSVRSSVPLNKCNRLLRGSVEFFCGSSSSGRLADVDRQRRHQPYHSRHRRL
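Purified cruzain at 1.5 nM, pre-incubated 15 min with compound at room temperature in 100 mM sodium acetate pH 5.5, 5 mM DTT, 0.00005% Triton X-100. Reaction started with 2 uM Z-FR-AMC; AMC fluorescence increase over 60 s gives rate.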
Cruzain Triton: blocks cruzain activity in presence of Triton detergent; P25779; purified cruzain, Z-FR-AMC fluorescence, 0.01% Triton; 0.43% of 200,000 active; Potency, µM, without a hit: max response, negative = inhibition, usual class: inhibitors; active means well fitted curve in the direction sought with a large enough effect; inconclusive means small, poorly fitted or top-dose-only effect, or another doubt; inactive means no such curve, though single readings can be large; an effect the other way counts as inactive or inconclusive;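 further: plate controls were neutral wells for no effect and buffer without enzyme for full effect; nearly all actives have a fitted effect of over 40% in size; top concentration of the series not given in the record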
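15 min RT preincubation of 1.5 nM cruzain with compound, then 2 uM Z-FR-AMC added; kinetic AMC fluorescence, 60 s delta. Triton X-100 0.01%, pH 5.5.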
StopGo reporter: lowers the luciferase signal of an FMDV 2A StopGo reporter; 1.2% of 410,000 active; Potency, µM (top dose mostly 57.9 µM), for the others: at the highest dose signal change, negative = less light; AID 1159524; human cells with a luciferase reporter of 2A StopGo recoding; control for the full effect not named in the record; active = well fitted falling curve with a large enough effect; inconclusive = small, poorly fitted or top-dose-only effect; inactive = no such curve, though single readings can be large or run the other way; tested in HEK293T cells; further: on the % scale 0 is the no-effect control and ±100 the full control effect; nearly all actives have a fitted effect of over 45% in size; luciferase light after 4 h
NS1 function inh: inhibitors of influenza NS1 protein function. S. cerevisiae slowed by influenza A NS1, growth recovery by OD600. Potency, µM (top dose mostly 46.1 µM), for inactives: at the highest dose activity, positive = more growth. 0.4% of 270,000 active. AID 2326; further: actives are rising curves; nearly all actives have a fitted effect of over 50% in size
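S. cerevisiae expressing influenza A NS1, grown in glucose, washed, then diluted 1:100 into pH 6.0 -URA galactose medium with 23 nl compound. Growth recovery read as OD600; NS1-free strain serves as control.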
The depositor's hits bear a star; ? = inconclusive; · = no result given; & = joins results of further samples; ! = repeats disagree; [ ] = dose if it differs, or a comment. Unless noted, the call rests on the fitted dose curve; in most records, active means well fitted rising curve with a large enough effect; inconclusive means small, poorly fitted or top-dose-only effect; inactive means no such curve, though single readings can be large or run the other way. Potency means the concentration at half of the fitted maximal effect.

mol,MARV entry inh,RE007 growth inh,SARS PLpro yeast,LASV entry inh,Cruzain inh noDet,Cruzain Triton,StopGo reporter,NS1 function inh
COc1cccc2[nH]c(=O)c(-c3ccccc3)cc12,·,10.9%,-0.3%,·,·,·,52.7%[activator],-33.7%
O=C(COc1ccc2ccccc2c1Br)N1CCN(c2ccccn2)CC1,?,4.4%,2.6%,?,?,-7.3%,-23.3%,-61.3%
COc1cc(OC)c(Nc2cc(C)nc3ncnn23)cc1Cl,10.2%[46.1 µM],·,·,-4.0%[46.1 µM],-5.1%,-2.9%,14.2%,·
Cc1ccc(NC(=O)c2ccccc2)cc1-n1cnnn1,0.2%[46.1 µM],-4.6%,17.0%,-0.7%[46.1 µM],·,·,24.8%,8.7%
COc1ccc(CCNC(=O)CN(c2ccc(OC)c(OC)c2)S(C)(=O)=O)cc1,?,-0.7%,5.7%,?,6.1%,-7.5%,5.9%,15.2%
O=C(Nc1cccc([N+](=O)[O-])c1)c1ccc(CN2CCOCC2)cc1,-6.1%,0.4%,11.0%,?,-1.0%,4.3%,-17.3%,26.9%
COc1cccc(-c2nc(-c3ccc(-c4ccccc4)nc3OC)no2)c1,17.0%[46.1 µM],·,·,7.3%[46.1 µM],6.4%,-4.0%,14.5%,·
COc1ccccc1C(C)Nc1nc(-c2cccnc2)nc2ccccc12 (stereo not drawn),?,?,-69.7%,-9.2%,·,·,-25.2%,-76.3%
CCN(C(=O)COC(=O)c1cc2c(s1)CCCC2)c1c(N)n(Cc2ccccc2)c(=O)[nH]c1=O,-1.7%[46.1 µM],-3.4%,0.7%,-10.8%,·,·,-5.8%,·
NS(=O)(=O)c1ccc(NC(=O)CSc2ncccn2)cc1,2.6%,0.5%,0.4%,4.7%,·,·,21.6%,3.3%
COCCNC(=O)C(C)OC(=O)c1cc2sccc2n1C (stereo not drawn),?,0.6%,-1.3%,1.7%,2.7%,0.9%,-8.6%,2.2%
Cc1ccc(OCC(=O)NCC(=O)Nc2ccc(F)cc2)c([N+](=O)[O-])n1,?,-3.8%,-6.1%,-1.2%,-6.4%,-2.1%,-10.8%,5.2%
O=C(NCc1ccccc1Cl)C1CCCN1S(=O)(=O)c1ccc(F)cc1 (stereo not drawn),·,-11.8%,?,·,·,·,-2.4%,-3.5%
Cc1nc2c(C(=O)NCc3ccc4c(c3)OCO4)c[nH]n2c(=O)c1Cc1ccccc1F,8.3%,8.5%,-10.6%,-3.4%,-0.9%,-14.6%,-3.2%,2.7%
Cc1ccc(NC(=O)CCNCc2ccco2)cc1S(=O)(=O)N(C)C,13.8%[46.1 µM],-0.4%,0.4%,3.5%,·,·,37.4%[activator],·
COc1ccc2oc(=O)c(C(=O)N3CCN(c4ccc(F)cc4)CC3)cc2c1,?,3.9%,-9.0%,-3.1%,-2.9%,-8.8%,0.0%,0.2%
COc1ccc(CC(=O)N2CCN(c3ccccn3)CC2)cc1OC,6.5%,-1.8%,0.8%,11.0%,-8.4%,6.8%,-6.9%,5.4%
CC1(C)C2CCC1(CS(=O)(=O)N1CCN(c3ccc(F)cc3)CC1)C(=O)C2 (stereo not drawn),·,3.8%,-0.4%,·,·,·,-28.8%,6.8%
CCC(C)(C)C1CCC2(CC1)NC(=S)N(c1ccccc1)N2 (stereo not drawn),·,38.0%,-0.6%,·,·,·,40.8%[activator],-3.0%
CC(Oc1ccc2ccccc2c1)C(=O)NNC(=O)Nc1ccccc1F (stereo not drawn),5.8%[46.1 µM],2.5%,-2.1%,-1.1%[46.1 µM],·,·,29.6%,-11.8%
CC1=C(C(=O)N2CCOCC2)C(c2ccccc2F)C2=C(CC(C)(C)CC2=O)N1 (stereo not drawn),-1.0%,3.0%,2.3%,11.0%,3.6%,4.6%,-2.9%,5.3%
OCCNc1nc(Nc2cccc(O)c2)nc2ccccc12,?,-2.8%,-0.6%,-11.9%,·,·,?,9.1%
CCc1ncc(CN2CCC(C(=O)Nc3ccc(-n4nc(C)cc4C)cc3)CC2)cn1,·,-11.0%,-1.4%,·,·,·,?,3.1%
O=C(Nc1ccccc1)C1CCN(c2nccs2)CC1,-0.9%,6.0%,-18.7%,7.4%,0.4%,3.7%,-17.3%,-7.0%
O=[N+]([O-])c1ccc(C2OCCO2)cc1CS(=O)(=O)c1ccccc1,-0.2%[46.1 µM],-20.5%,0.3%,-8.2%,·,·,-19.3%,·
O=C(O)CCC(=O)Nc1ccc(C(=O)OCC(=O)c2ccc(Cl)cc2)cc1,13.3%[46.1 µM],-1.4%,0.1%,8.7%[46.1 µM],·,·,49.4%[activator],-1.6%
Cc1nc(SCC(=O)NNC(=O)c2cccs2)[nH]c(=O)c1C,-1.2%[46.1 µM],-18.4%,-2.1%,13.9%[46.1 µM],·,·,12.1%,·
O=C(c1cccc(Cl)c1)N1CCC(N2CCC(C(=O)N3CCOCC3)CC2)CC1,-15.7%[46.1 µM],-16.8%,0.5%,-13.2%,·,·,-0.6%,-2.8%
Clc1ccccc1CN1CCc2nc(N3CCN(c4ncccn4)CC3)ncc2C1,·,·,·,-1.8%[46.1 µM],17.9%,-3.7%,31.6µM*,·
O=C1CCCC2=C1C(c1cccnc1)Nc1ccccc1N2 (stereo not drawn),9.5%,13.3%,2.3%,?,0.7%,-4.9%,-0.1%,3.1%
CNC(=S)N/N=C(\C)c1ccc(Cl)c(Cl)c1,0.5%[46.1 µM],-19.8%,0.4%,?,·,·,-6.6%,·
CN(C)c1ccc(S(=O)(=O)N2CCCCC2)cc1NC(=O)C1=NN(c2ccccc2)C(=O)CC1,·,-9.4%,?,·,·,·,-20.1%,-6.0%
Cc1cccc(NC(=O)CSc2nnc(C3CC3)n2CC2CCCO2)c1C (stereo not drawn),-16.7%[46.1 µM],-23.8%,8.5%,?,·,·,-0.3%,-7.6%
CC[C@@H]1[C@H]2CCCC(=O)N3CC[C@@H](C[C@@H]1OC(=O)Nc1ccccc1)[C@@H]23,·,-13.8%,-2.9%,·,·,·,-24.4%,-0.8%
CCN(CC)CCOC(=O)c1cc(Cl)c(N)cc1OC,12.6µM*!,0.2%[18.4 µM],·,?,3.7%&-1.6%,5.2%&-2.9%,-9.3%&-6.1%,-0.7%
O=C(Nc1ccncc1)c1ccc(Cl)c(S(=O)(=O)N2CCCC2)c1,?,-18.4%,-4.9%,-9.5%,·,·,-8.7%,·
CC(=O)c1c(C)[nH]c(C(=O)COC(=O)C2CC2)c1C,18.3%[46.1 µM],3.5%,0.3%,5.2%,·,·,12.7%,·
Cc1ccc(NC(=O)/C=C/c2ccccc2)c(Br)c1,·,·,·,4.9%[46.1 µM],-4.9%,-3.5%,9.4%,·
CNc1c([N+](=O)[O-])cnn1-c1ccccc1Cl,-9.3%,14.3%,4.2%,7.3%,-4.5%,0.2%,46.3%[activator],6.6%
CCCCCCCCCCn1cc(C(C)=O)c(=O)[nH]c1=O,-8.3%,-0.5%,5.1%,4.6%,-22.3%,1.0%,?,4.4%
COc1ccc(CN2CCC(C(=O)N(C)CCc3ccc(OC)c(OC)c3)CC2)c(OC)c1,1.5%&1.5%,-7.5%,2.2%,11.4%,-4.5%,4.7%,-1.0%,1.5%
Cc1cc(OCC(=O)NCCc2c[nH]c3ccccc23)c2c(C)cc(=O)oc2c1,·,9.8%,-1.0%,·,·,·,-26.4%,2.0%
C=CCNC(=S)Nc1ccc2nsnc2c1,13.4%,-5.1%,-3.1%,13.1%,5.8%,-3.6%,27.1%,6.9%
COc1ccc(-c2cc(-c3nnc(COC(=O)CC4CCCC4)o3)c3ccccc3n2)cc1OC,?,3.8%,21.3%,-0.4%,7.2%,-14.2%,-20.4%,15.0%
CCN(Cc1ccccc1)C(c1ccc(C)cc1)c1nnnn1C(C)(C)CC (stereo not drawn),?,0.2%,-29.6%,?,1.5%,-3.0%,?,0.8%
Cc1cc(=O)oc2cc(NC(=O)CN3C(=O)NC(C)(c4ccccc4)C3=O)ccc12 (stereo not drawn),12.6%[46.1 µM],-8.3%,·,-0.4%,·,·,-13.0%,·
CC(=O)N1c2ccc(S(=O)(=O)N(C)CC(=O)N(C)Cc3ccccc3)cc2CC1C (stereo not drawn),4.3%[46.1 µM],5.2%,-5.5%,-13.9%[46.1 µM],·,·,-10.7%,-1.2%
CS(=O)(=O)NNC(=O)c1cc2cc3ccccc3nc2s1,5.5%[46.1 µM],-7.0%,0.8%,8.7%[46.1 µM],·,·,34.9%[activator],·
CC(C)(C)c1ccc(-c2n[nH]c(=S)n2/N=C/c2ccncc2)cc1,-17.2%,-18.7%,5.0%,-0.8%,10.3%,-3.6%,-13.1%,15.6%
Cc1cc(C)c(NC(=O)c2cccc(NC(=O)c3ccco3)c2)c(C)c1,·,-8.9%,-5.4%,·,·,·,-2.9%,-49.9%
N#CC1=C(SCC(N)=O)NC(=O)CC1c1cccc2ccccc12 (stereo not drawn),5.9%,1.8%,·,15.8%,·,·,-4.1%,5.4%
CCOC(=O)c1nn(-c2ccccc2)cc1O,·,-3.2%,-1.1%,·,·,·,47.3%[activator],-0.1%
CCc1ccc(NS(=O)(=O)c2c(C(=O)N3CCOCC3)c(C)n(C)c2C)cc1,16.8%[46.1 µM],5.8%,-1.2%,18.2%[46.1 µM],·,·,6.8%,5.3%
O=C(CSc1nnc(-c2ccc(F)cc2)o1)Nc1ccc(S(=O)(=O)N2CCCCCC2)cc1,-15.5%,9.7%,-4.0%,?,-14.8%,4.5%,·,4.3%
O/N=C1/CCc2cccc3cccc1c23,-10.8%,-15.0%,-4.6%,0.4%,-9.9%,-3.8%,13.2%,3.8%
